Vaccinia Venus: inhibitors of vaccinia virus (Venus reporter); Vaccinia virus Venus reporter expression, fluorescence; Potency, µM (titrated, usually from 36.5 µM), for inactives: at the top dose activity change, negative = inhibition, usual class: inhibitors; 330,000 compounds, 0.46% hits; active means well fitted inhibition curve with a large enough effect; inconclusive means small, poorly fitted or top-dose-only effect; inactive means no such curve, though single readings can be large or run the other way; tested in A549 cells; note: nearly all actives have a fitted effect of over 30% in size; inactives centre near -10
Vaccinia mCherry: inhibitors of vaccinia virus infection (mCherry reporter signal); Vaccinia virus mCherry reporter infection, fluorescence; about a quarter of the inactives have no number; Potency, µM (highest dose often 36.5 µM), without a hit: at the highest dose activity change, negative = inhibition, actives largely listed as inhibitors; 310,000 compounds, 0.63% hits; AID 720579; active = well fitted inhibition curve with a large enough effect; inconclusive = small, poorly fitted or top-dose-only effect; inactive = no such curve, though single readings can be large or run the other way; tested in A549 cells; note: nearly all actives have a fitted effect of over 35% in size; inactives centre near -10
An asterisk follows results filed as active; i = inactive; u = inconclusive; x = no result given; & = joins results of further samples; [ ] = dose if it differs, or a comment. % is set by controls: 0 for no effect and ±100 for the full control effect; potency is the fitted concentration of half-maximal effect.

smiles	Vaccinia Venus	Vaccinia mCherry
CCCCN1C(=O)C(NC(=O)CC(C)C)(C(F)(F)F)C2=C1CC(C)(C)CC2=O (configuration not stated)	-13%	-14%
Cc1ccc(Cn2c(=O)n(Cc3ccc(Cl)cc3)c(=O)c3cccnc32)cc1	-8%	-20%
O=c1[nH]c(=O)n(C2CCCO2)cc1F (configuration not stated)	-5%	i
O=C(Nc1ccccc1)C1Cc2c(-c3cccc(F)c3)ccnc2O1 (configuration not stated)	-8%	14%
CC(C)(C)c1ccc(OCC(=O)Nc2ccc(S(=O)(=O)Nc3ncccn3)cc2)cc1	3%	-12%
COC(=O)[C@@]12C[C@@H](CC(=O)NCC34CC5CC(CC(C5)C3)C4)C(=O)N(Cc3ccco3)C1=CCC(C)(C)C2	u	-8%
C=CC(=O)N1C/C(=C/c2ccccc2)C(=O)/C(=C\c2ccccc2)C1	8.9µM*	u
Cc1cc(NC(=O)Nc2cccc(C(F)(F)F)c2)n(C)n1	4%	i
COCCNC(=O)C(c1ccc(OC)cc1)N(Cc1ccco1)C(=O)CCC(=O)Nc1ccccn1 (configuration not stated)	-16%	-13%
CCOC(=O)CN1CCC(c2ccccc2)CC1	-1%	i
CC(C)(C)c1ccc(C(=O)Nc2nc3nc(-c4ccccc4)cc(=O)n3[nH]2)cc1	-2%[7.34 µM]	-7%[7.34 µM]
COc1ccc(C(=O)NN=C2CCCC2)cc1OC	-15%	u
COc1cccc(CN2CCC(N(CCc3ccccc3)Cc3ccccc3)CC2)c1OC	u	u
CCCCc1oc2ccccc2c1C(=O)c1cc(I)c(N(CC)CCOCC)c(I)c1	u	-28%
CC1CCCCC1NC(=O)CSc1nnc(-c2ccco2)n1N (configuration not stated)	-12%	-18%
O=C1OCCN1C(=O)[C@H]1[C@H](c2ccccc2)C(c2ccc(F)cc2)=NN1c1ccccc1	-23%	-29%
Cc1ccccc1-c1cccc([C@@H]2C[C@H]3[C@H](CON3C)CN2Cc2ccccc2)c1	-23%	-18%
CCc1ccc(C(C(=O)NCc2ccc(OC)cc2)N(CCOC)C(=O)Cc2cccs2)cc1 (configuration not stated)	-22%	-9%
O=C(CCN1C(=O)c2ccccc2C1=O)Nc1cccc(S(=O)(=O)NC2=NCCC2)c1	0%	-8%
NCCCN(Cc1ccc(Cl)cc1)c1ccc(Br)cn1	-15%	-5%
CC(C)(C)C(=O)N1CCn2c1nc1ccccc12	1%	-2%
COc1ccc(OCC(=O)O/N=C(\N)Cc2ccc(Cl)cc2Cl)cc1	-37%	x
CC(=O)c1sc(NC(=O)c2ccc(COc3ccccc3Cl)o2)nc1C	4%	-9%
Cn1cc(Cl)c(C(=O)OCC(=O)Nc2nc(-c3ccc(Br)cc3)cs2)n1	-15%	-15%
COc1ccccc1C(=O)NC(=O)COC(=O)Cc1ccccc1[N+](=O)[O-]	-6%	-14%
COc1cc(/C=C/C(=O)OCC(=O)NC2CCS(=O)(=O)C2)ccc1O (configuration not stated)	-3%	i
O=C1c2ccccc2C(=O)N1c1nc(-c2ccc(F)cc2)cs1	u	u
c1ccc2c(c1)OCC(c1csc3ncnc(N4CCCC4)c13)O2 (configuration not stated)	-10%	x
CCOc1ccc(CC(=O)NNC(=O)/C=C/C(=O)O)cc1	0%	-8%
COCCCNC(=O)c1ccc(Cn2c(=O)c3ccccc3n(Cc3c(C)cc(C)cc3C)c2=O)cc1	-9%	-9%
Nc1ccc2c(c1Br)Cc1ccccc1-2	-13%	-23%
CN1OC[C@@H]2CN(C(=O)C(C)(C)C)[C@H](c3ccc(-c4cccnc4)cc3)C[C@@H]21	-4%	10%
CC(C)Cc1cc(C(=O)N2CCCC(CCC(=O)N(C)CCc3ccccn3)C2)no1 (configuration not stated)	-9%	-1%
COc1ccc(C(=O)Cc2nnc(C)s2)cc1	-10%	i
O=C(Nc1ccccc1)NC1CCN(Cc2c(F)cccc2Cl)CC1	-27%	-25%
O=C(CN1CCN(Cc2ccc(Cl)cc2)CC1)N/N=C/C=C/c1ccccc1[N+](=O)[O-]	-25%	-26%
CC1(C)NS(=O)(=O)Oc2ccccc21	-4%	i
Cc1ccc(S(=O)(=O)N2CCN(C(=O)c3ccc(OCc4c(C)noc4C)cc3)CC2)cc1	-21%	i
COC(=O)c1ccc2nc(-c3ccco3)c(Cc3ccccc3)n2c1	-9%	-6%
CCn1c(SCC(=O)Nc2c(C)n(C)n(-c3ccccc3)c2=O)nc2c1c(=O)n(C)c(=O)n2C	-9%	i
Cc1ccc(C(=O)NCCNC(=O)c2ccc(C)nc2)cc1	-8%	-11%
CC(C)Oc1cc(F)ccc1-c1cc(C(=O)Nc2ccccc2)[nH]n1	-15%	-28%
COc1cccc(NC(=O)CSC2=Nc3ccccc3C3=NC(CCC(=O)NCCc4ccccc4)C(=O)N23)c1 (configuration not stated)	u	u
O=C(Cc1cccs1)NC1CC(=O)N(c2ccc(Cl)cc2)C1 (configuration not stated)	-5%	-7%
CCc1ccc(NC(=O)CCS(=O)(=O)c2ccc3c(c2)CCN3C(C)=O)cc1	-11%&-11%	-10%
O=C(NCCc1ccccc1)c1ccccc1NS(=O)(=O)N1CCCC1	-3%	-10%
C#Cc1ccc([C@H]2C=C(C(=O)O)O[C@@H](OCc3ccc(CO)cc3)C2)cc1	-7%	i
CC(C)(C)OC(=O)NOCC(=O)N(CC(=O)c1ccccc1)Cc1ccccc1	-13%	i
CC(C)CCc1noc(CN(C)CC2CCN(Cc3ccccc3)CC2)n1	-12%	-8%
CCCC(=O)Nc1cccc(-c2cn3c(C)csc3n2)c1	-11%[7.34 µM]	-9%[7.34 µM]
Cc1cc(C)c2c(c1)/C(=N/NC(=O)c1ccc(O)cc1)CCC2	u	-28%
CCOc1ccccc1N(CC(=O)N1CCN(Cc2ccccc2)CC1)S(=O)(=O)c1ccccc1	-21%	-14%
CCOC(=O)c1cc(CC)sc1N	-8%	11%
CC(C)c1ccc(N2C(=O)NC(=O)/C(=C/c3cnc(-c4ccccc4)nc3)C2=O)cc1	0%	-7%
Cc1cc(/C=N/n2cnnc2)c(C)n1-c1ccccc1	-11%	x
c1ccc(CSc2ccc(-c3ccccn3)nn2)cc1	u	u
CC(=O)NC1(c2cccc(F)c2)CCN(CC(=O)NC(C)C)CC1	1%	-10%
Cc1ccc2c(c1)NC(=O)C(CC(=O)N(C)Cc1ccccc1)O2 (configuration not stated)	5%	-8%
c1ccc(OCCN2C3=NCCN3c3ccccc32)cc1	-15%	x
O=C(COC(=O)c1ccc(Br)o1)NCc1ccco1	-1%	-7%

Ordered by length of the SMILES (low to high): some entries from above.
smiles	Vaccinia Venus	Vaccinia mCherry
Cc1ccc2c(c1)NC(=O)C(CC(=O)N(C)Cc1ccccc1)O2 (configuration not stated)	5%	-8%
Cc1cc(C)c2c(c1)/C(=N/NC(=O)c1ccc(O)cc1)CCC2	u	-28%
CC(C)(C)OC(=O)NOCC(=O)N(CC(=O)c1ccccc1)Cc1ccccc1	-13%	i

The list continues:
smiles	Vaccinia Venus	Vaccinia mCherry
CCOc1ccc(CCN2C(=O)C(=O)N([C@@H](Cc3ccccc3)CN3CCC[C@H]3CN3C(=O)C(=O)NC[C@@H]3CC(C)C)C[C@@H]2Cc2ccc(O)cc2)cc1	-11%	-4%
O=C(C1CCCN1C(=O)c1cccs1)N1CCN(Cc2ccc3c(c2)OCO3)CC1 (configuration not stated)	-8%	-13%
O=C(c1ccccn1)C1CCCN(Cc2cn[nH]c2-c2cc3ccccc3o2)C1 (configuration not stated)	-24%	u
O=C(O)c1ccccc1SC1CC(=O)N(C2CCCCC2)C1=O (configuration not stated)	-14%	i
O=C(NCC1Cc2cc(F)cc(-c3cnccn3)c2O1)C1COc2ccccc2O1 (configuration not stated)	-16%	-2%
Fc1ccc(NC(=S)Nc2ccc(Br)cc2)cc1	u	u
O=C(CN1CC(c2ccccc2)CC1=O)Nc1ccccc1 (configuration not stated)	1%	-1%
COc1ccc(C/C(N)=N/OC(=O)c2ccco2)cc1OC	-6%	-8%
CC(C)(C)OC(=O)C[C@H]1C/C=C\C[C@H](CC(=O)NCCO)C(=O)NC[C@@H](c2ccccc2)OC1=O	-1%	i
CCOC(=O)c1noc2nc(C)n(Cc3cccc([N+](=O)[O-])c3)c(=O)c12	-12%[7.34 µM]	-17%
CN(C)CCN1CCN(C2CN(Cc3cn(Cc4ccccc4)nn3)S(=O)(=O)C2)CC1 (configuration not stated)	5%	7%
COCc1ccc(CN2CCC(CO)(CC3CCCCO3)CC2)o1 (configuration not stated)	-7%	-3%
CCOC(=O)c1c(C)oc2c1c(C=NCCO)c(O)c1ccccc12	u	u
Cc1ccc(C(=O)O)cc1NC(=O)C1CCCN1S(=O)(=O)c1cccc2nsnc12 (configuration not stated)	-3%	i
CSc1nc(Sc2ccc(Cl)cc2)c2ccccc2n1	-13%	-10%
O=S(=O)(O)C(=Cc1ccccc1)c1ccccc1 (tested in a mixture with another compound)	0%	i
CC1(C(=O)Nc2ccc(Cl)c(Cl)c2)CCN1Cc1ccccc1OC(F)F (configuration not stated)	-24%	i
O=C(NCC1CCCO1)c1ccccc1-c1nc(-c2ccc(Cl)cc2)no1 (configuration not stated)	-18%	u
Cc1c2cnn(-c3ccccc3)c(=O)c2c(C)n1CCCC(=O)N1CCN(C2CCCCC2)CC1	-4%	-22%
CCC1(C(=O)c2ccccc2)C(c2ccc([N+](=O)[O-])cc2)C1(C(=O)OC)C(=O)OC (configuration not stated)	-11%	i
Clc1ccc(-c2nsc(N3CCOCC3)n2)c(Cl)c1	-7%	-22%
Cc1cccc(/C=C2/S/C(=N/N=C3\CC4CCC3(C)C4(C)C)NC2=O)c1 (configuration not stated)	1%	x
Cc1ccccc1N(C(=O)Cn1nnc2ccccc21)C(C(=O)NCc1ccco1)c1ccncc1 (configuration not stated)	-8%	x
Cc1nnn(C23CC4CC(CC(CC(=O)Nc5ccc(C)c(Cl)c5)(C4)C2)C3)n1	-23%	-7%
O=C1CCC/C(=N/NC(=O)c2ccc(CN3c4cccc5cccc(c45)S3(=O)=O)cc2)C1	-13%	i
Cc1ccc(/C=N/NC(=O)c2ccccn2)o1	1%	-4%
COc1ccc(NC(=O)C2(C)CCN2C2Cc3ccccc3C2)cc1OC (configuration not stated)	-14%	i
O=C(CN1CCN(C(=O)c2ccccc2)CC1)Nc1cccc(S(=O)(=O)N2CCCC2)c1	-14%	-15%
Cc1cc(NC(=O)COC(=O)COc2cccc3c2OC(C)(C)C3)no1	-5%	-15%
CC(c1cccs1)N(Cc1ccco1)C(=S)Nc1ccc(F)c(Cl)c1 (configuration not stated)	10%	-22%

One compound at a time (already shown):
Shown for CC(c1cccs1)N(Cc1ccco1)C(=S)Nc1ccc(F)c(Cl)c1 (configuration not stated) → Vaccinia Venus: 10%; Vaccinia mCherry: -22%
Shown for Clc1ccc(-c2nsc(N3CCOCC3)n2)c(Cl)c1 → Vaccinia Venus: -7%; Vaccinia mCherry: -22%
Shown for CCC1(C(=O)c2ccccc2)C(c2ccc([N+](=O)[O-])cc2)C1(C(=O)OC)C(=O)OC (configuration not stated) → Vaccinia Venus: -11%; Vaccinia mCherry: i

Remaining list, next part.
smiles	Vaccinia Venus	Vaccinia mCherry
CCCNC(=O)N(C)C[C@H]1Oc2cc(Br)ccc2S(=O)(=O)N([C@@H](C)CO)C[C@@H]1C	-8%	-1%
COc1ccc(OC)c(-c2ccc(O)c(CN3CCc4c([nH]c5ccccc45)C3)c2)c1	-7%	-9%
CC(=O)c1cccc(S(=O)(=O)N(CCCO)Cc2cc3ccc(C)cc3[nH]c2=O)c1	-13%	-16%
Cc1ccc(C)c(N=Cc2c(O)c3ccccc3oc2=O)c1	-15%	-18%
COc1cc(C2c3c(-c4c(C)cc(C)cc4O)n[nH]c3C(=O)N2CCCOC(C)C)cc(OC)c1OC (configuration not stated)	-7%	-1%
COc1ccc(C(=O)OCC(=O)N2CCN(C(=O)c3ccco3)CC2)c(OC)c1OC	-12%	-21%
Nc1cc(N)nc(SCCN2CCCCC2)n1	-10%	-14%
CC(=O)Nc1ccc(Nc2nc(C)c([N+](=O)[O-])c(Nc3ccc(NC(C)=O)cc3)n2)cc1	-14%	-1%
Cn1c(C(=O)O)cnc1Sc1ncc(C(F)(F)F)cc1Cl	-7%	i
Cc1cccc(C)c1NC(=S)NC1CCCCC1	-7%	-9%
CC1=C(C(=O)Nc2ccccc2C)C(c2ccc(C)o2)n2c(s/c(=C/c3ccccc3)c2=O)=N1 (configuration not stated)	-2%	-9%
CC(C)[C@H](NC(=O)[C@@H]1CSCN1C(=O)OC(C)(C)C)C(=O)NCC1CCC(C(=O)O)CC1 (some centres not stated)	-1%	-1%
COc1cc(C2C3=C(COC3=O)Oc3cc4c(cc32)OCO4)cc(OC)c1OC(C)=O (configuration not stated)	u	u
CC(=O)Nc1nc(C)c(Oc2ccc(C)cc2)c(=O)[nH]1	17%	-4%

Bioassay records from PubChem BioAssay.
